FLuc counter = counter-screen for miR-21 project: firefly luciferase inhibitors or activators; Potency, µM (doses to about 57.5 µM), for the others: top-dose activity change, negative = inhibition, hits mostly inhibitors; 6.9% of 360,000 active; purified FLuc, Km substrates, luminescence inhibition; AID 588342; P08659;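 further: potency means the concentration at half of the fitted maximal effect; plate controls were vehicle for no effect and reference inhibitor for full effect; nearly all actives have a fitted effect of over 55% in size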
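Purified P. pyralis luciferase, 10 nM final, with Km-level 10 uM D-luciferin and 10 uM ATP in 50 mM Tris acetate pH 7.5, 10 mM Mg acetate, 0.01% Tween-20, 0.05% BSA; 6-point qHTS titration about 60 µM downward; luminescence read.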
Rab9 promoter act = activates the Rab9 promoter; Huh7 Rab9 promoter-luciferase reporter, luminescence, 24 h; Potency, µM (series often up to 9.22 µM), without a hit: top-dose activation, negative = inhibition, most hits filed as activators; 2.8% of 320,000 active; further: potency means the concentration at half of the fitted maximal effect; % of control where 0% means no effect; nearly all actives have a fitted effect of over 60% in size
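Rab9 promoter-driven luciferase in stably transfected Huh7 cells; 1500 cells/well rested 2 h, exposed to compound in DMSO for 24 h at 37 °C, 5% CO2. Luminescence read 10 min after adding luciferase reagent at ambient temperature.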
BRCA1 expr up = activators of BRCA1 expression; MCF7-BRCA1-FFLuc reporter, luminescence, 48 h; response scale: scaled: vehicle 0%, 10 µM genistein 100%; Potency, µM (titrated, usually from 46.1 µM), without a hit: top-dose activation, hits mostly activators; 1.1% of 380,000 active; further: potency means the concentration at half of the fitted maximal effect; nearly all actives have a fitted effect of over 80% in size; some results filed as inactive show a strong effect at the top dose
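Using MCF7 cells harboring a BRCA1 firefly luciferase reporter, plated 2 h before compound pinning, the screen measured luminescence after 48 h incubation. Responses were normalized to DMSO and 10 microM genistein, then fitted for concentration-effect.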
NPC1 promoter act = NPC1 promoter activation. Huh7 NPC1 promoter luciferase reporter, 24 h. Potency, µM (titrated, usually from 9.22 µM), for inactives: at the highest dose activation, actives largely listed as activators. 2.4% of 320,000 active. AID 485313;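 further: potency means the concentration at half of the fitted maximal effect; % of control where 0% means no effect; nearly all actives have a fitted effect of over 60% in size; reporter is driven by a mutant NPC1 promoter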
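In 1536-well qHTS, Huh7 cells harboring an NPC1 promoter–luciferase construct received compound for 24 h; activation was quantified by luminescence following luciferase reagent addition.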
RORg inh = inhibitors of mouse ROR gamma transcriptional activity | P51450 | Drosophila S2 Gal4-RORgamma UAS-luciferase reporter, 20 h | Potency, µM (top dose mostly 53.6 µM), without a hit: top-dose activity change, negative = inhibition, usual class: inhibitors | 5.4% of 310,000 active | AID 2551; further: potency means the concentration at half of the fitted maximal effect; on the % scale 0 is the no-effect control and ±100 the full control effect; nearly all actives have a fitted effect of over 60% in size
Target sequence (P51450 whole entry, looked up, the tested form may be a part): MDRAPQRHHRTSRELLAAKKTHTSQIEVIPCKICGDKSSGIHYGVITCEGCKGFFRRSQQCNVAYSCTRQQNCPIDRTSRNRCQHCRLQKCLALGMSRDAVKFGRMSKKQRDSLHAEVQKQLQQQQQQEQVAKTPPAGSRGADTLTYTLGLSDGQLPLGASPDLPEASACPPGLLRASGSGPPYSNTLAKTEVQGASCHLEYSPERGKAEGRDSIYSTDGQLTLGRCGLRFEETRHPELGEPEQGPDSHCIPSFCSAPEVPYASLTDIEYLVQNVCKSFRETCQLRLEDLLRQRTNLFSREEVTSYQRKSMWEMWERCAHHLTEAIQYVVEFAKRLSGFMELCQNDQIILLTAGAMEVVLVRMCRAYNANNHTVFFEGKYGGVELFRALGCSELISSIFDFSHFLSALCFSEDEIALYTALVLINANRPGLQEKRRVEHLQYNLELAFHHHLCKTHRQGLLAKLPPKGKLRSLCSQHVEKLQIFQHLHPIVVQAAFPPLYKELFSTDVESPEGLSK
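Read-out: Photinus luciferase luminescence; inhibitors lower reporter signal. Insect Schneider cells with Gal4-ROR gamma fusion under metallothionein promoter, UAS reporter; 700 uM final copper sulfate induction, 20 hr, ambient temperature.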
Giardia kill = kills Giardia lamblia; Giardia lamblia trophozoite viability; activity change, % at 7.66 µM, hits read low; 0.15% of 340,000 active; AID 540267; in the data active means activity change below about -80%; inconclusive means between about -30% and that limit;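 further: parasites exposed to compound for two days anaerobically before the ATP read; on the % scale 0 is the no-effect control and ±100 the full control effect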
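Luminescent ATP signal served as the viability read-out, measured 15-30 min after adding ATP detection reagent to trophozoites that had been incubated with compounds for 48 hrs at 37 deg C anaerobically at 100 cells/well.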
Gal4-VP16 FLuc = Gal4-VP16 reporter inhibition counter-screen | Potency, µM (series often up to 53.6 µM), for inactives: at the top dose activity, negative = inhibition, usual class: inhibitors | Drosophila S2 Gal4-VP16 UAS-luciferase, luminescence, 20 h | 3.5% of 310,000 active;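 further: Gal4-VP16 expression switched on by copper sulfate through the metallothionein promoter; potency means the concentration at half of the fitted maximal effect; on the % scale 0 is the no-effect control and ±100 the full control effect; nearly all actives have a fitted effect of over 50% in size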
p53 reactivator = restores transcriptional activity of mutant p53 | H1299 p53-A138V BP100-luciferase reporter, luminescence, 24 h | Potency, µM (doses to about 92.2 µM), without a hit: at the highest dose activity change, positive = activation, hits mostly activators | 0.063% of 320,000 active; further: potency means the concentration at half of the fitted maximal effect; % of control where 0% means no effect; nearly all actives have a fitted effect of over 45% in size
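p53-null H1299 cells stably carrying temperature-sensitive p53-A138V and a BP100-luciferase reporter were pinned with compounds (4-point, 1:5 series) and held 24 hrs at 37 deg C. Luminescence was read 10 min after detection reagent.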
Menin MLL FP TR = displaces Texas Red mutant MLL peptide from human menin. O00255. Menin + Texas Red MLL mutant peptide, fluorescence polarization. Potency, µM (titrated, usually from 61.6 µM), for the others: at the top dose FP activity change, negative = inhibition, usual class: inhibitors. 0.23% of 270,000 active; active means well fitted inhibition curve with a large enough effect in the polarisation, with a control signal flat, not every such curve was filed as active; inconclusive means small, poorly fitted or top-dose-only effect, or effect the other way, or a change in a side signal; inactive means no such curve, though single readings can be large or run the other way; the % refers to the polarisation; further: potency means the concentration at half of the fitted maximal effect; % of control where 0% means no effect; many of its hits are not listed in these tables
Target sequence (O00255 whole entry, looked up): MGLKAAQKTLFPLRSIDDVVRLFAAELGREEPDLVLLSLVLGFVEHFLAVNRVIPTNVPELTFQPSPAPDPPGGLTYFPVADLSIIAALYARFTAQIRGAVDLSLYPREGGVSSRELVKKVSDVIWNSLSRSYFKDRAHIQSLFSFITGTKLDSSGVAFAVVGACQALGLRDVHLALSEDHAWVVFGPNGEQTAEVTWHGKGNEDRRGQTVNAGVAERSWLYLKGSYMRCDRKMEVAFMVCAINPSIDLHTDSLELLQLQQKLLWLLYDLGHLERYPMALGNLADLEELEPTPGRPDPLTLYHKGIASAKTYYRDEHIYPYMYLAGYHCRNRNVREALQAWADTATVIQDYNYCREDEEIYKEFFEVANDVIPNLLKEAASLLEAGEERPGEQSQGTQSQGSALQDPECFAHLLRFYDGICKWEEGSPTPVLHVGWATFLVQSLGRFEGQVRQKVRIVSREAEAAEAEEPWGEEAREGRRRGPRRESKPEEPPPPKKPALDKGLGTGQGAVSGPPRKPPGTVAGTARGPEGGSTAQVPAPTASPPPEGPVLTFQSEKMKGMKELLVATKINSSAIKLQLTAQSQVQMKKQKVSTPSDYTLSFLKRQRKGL
ELG1 genotoxic = induces genotoxicity in HEK293T cells with luciferase-tagged ELG1. Potency, µM (highest dose often 46 µM), without a hit: at the highest dose activity change, positive = activation, usual class: activators. 1.3% of 330,000 active. HEK293T ELG1-luciferase reporter, luminescence, 16 h; further: potency means the concentration at half of the fitted maximal effect; % of control where 0% means no effect; nearly all actives have a fitted effect of over 60% in size
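Genotoxic stress is detected as increased luminescence from luciferase-tagged ELG1 in HEK293T cells, measured with ONE-Glo after a 16 hr treatment at 37 °C.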
Numbers without * were called inactive; [ ] = dose if it differs, or a comment. Unless noted, the call rests on the fitted dose curve; in most records, active means well fitted curve in the direction sought with a large enough effect; inconclusive means small, poorly fitted or top-dose-only effect, or another doubt; inactive means no such curve, though single readings can be large; an effect the other way counts as inactive or inconclusive. An excerpt, so the mix of outcomes need not match the whole.

`COc1ccc(CCNC(=O)CC(=O)N/N=C/c2ccc(Br)cc2)cc1OC` gave FLuc counter -1%, Rab9 promoter act 0%, BRCA1 expr up -4%, NPC1 promoter act 3%, RORg inh 31%, Giardia kill 21, Gal4-VP16 FLuc -21%, p53 reactivator -8%, Menin MLL FP TR -4% and ELG1 genotoxic -4%.
Screening CCc1nc2c(sc3nc4c(cc32)COC(C)(C)C4)c(=O)n1CCN(CC)CC returned FLuc counter 2%, Rab9 promoter act -8%, BRCA1 expr up 17%, NPC1 promoter act -4%, RORg inh 1%, Giardia kill -19, Gal4-VP16 FLuc -3%, p53 reactivator 10%, Menin MLL FP TR -1% and ELG1 genotoxic 4%.
Screening CCN(CC)S(=O)(=O)c1ccc(NC(=O)C2COc3ccccc3O2)cc1 (stereo not drawn) returned FLuc counter -13%, Rab9 promoter act 1%, BRCA1 expr up -22%, NPC1 promoter act 4%, RORg inh -20%, Giardia kill 1, Gal4-VP16 FLuc -1%, p53 reactivator inconclusive, Menin MLL FP TR 12% and ELG1 genotoxic 14%.
For COc1ccccc1NC(=S)N1CC(C)OC(C)C1 (stereo not drawn) the results were FLuc counter 4%, Rab9 promoter act -2%, BRCA1 expr up 17%, NPC1 promoter act 0%, RORg inh 5%, Giardia kill 24, Gal4-VP16 FLuc 6%, p53 reactivator -2%, Menin MLL FP TR 5% and ELG1 genotoxic -3%.
For N#C/C(=C\C=C\c1ccccc1)C(=O)NCc1ccco1 the results were FLuc counter -2%, Rab9 promoter act 9%, BRCA1 expr up -60%, NPC1 promoter act 5%, RORg inh -16%, Giardia kill 8, Gal4-VP16 FLuc inconclusive, p53 reactivator 10%, Menin MLL FP TR -19% and ELG1 genotoxic 2%.
`COc1ccccc1N1CCN(C(=O)CSc2nnc(-c3ccoc3C)o2)CC1` gave FLuc counter -1%, Rab9 promoter act 2%, BRCA1 expr up -15%, NPC1 promoter act 2%, RORg inh -3%[10 µM], Giardia kill 16, Gal4-VP16 FLuc 5%, p53 reactivator 2%, Menin MLL FP TR -7% and ELG1 genotoxic -15%.
Screening COC(=O)Nc1ccc(S(=O)(=O)N2CCN(C)CC2)cc1 returned FLuc counter 2%, Rab9 promoter act 6%, BRCA1 expr up 0%, NPC1 promoter act -3%, RORg inh -9%, Giardia kill -9, Gal4-VP16 FLuc -9%, p53 reactivator 11%, Menin MLL FP TR -5% and ELG1 genotoxic -1%.
CCOc1ccc(OCC)c(NC(=O)C2CCN(S(=O)(=O)c3cnc[nH]3)CC2)c1 was read as FLuc counter -1%, Rab9 promoter act 3%, BRCA1 expr up 1%, NPC1 promoter act -2%, RORg inh 2%[0.365 µM], Giardia kill 22, p53 reactivator -1%, Menin MLL FP TR 18% and ELG1 genotoxic -5%.
`CCN1C(=O)C(=O)N(Cc2ccc(OC)c(F)c2)C1=O` gave FLuc counter 1%, Rab9 promoter act 6%, BRCA1 expr up 7%, NPC1 promoter act -1%, RORg inh -35%, Giardia kill -11, Gal4-VP16 FLuc 0%, p53 reactivator 1%, Menin MLL FP TR 0% and ELG1 genotoxic 6%.
CN(CC1CCOCC1)C(=O)CC1C(=O)NCCN1Cc1cccc(Oc2ccccc2)c1 (stereo not drawn) was read as FLuc counter 0%, Rab9 promoter act 0%, BRCA1 expr up 27%, NPC1 promoter act -5%, RORg inh 0%, Giardia kill 20, Gal4-VP16 FLuc -1%, p53 reactivator -1%, Menin MLL FP TR inconclusive and ELG1 genotoxic 4%.
`COc1ccc(/C=C2\S/C(=N/S(=O)(=O)c3cccs3)NC2=O)cc1` gave FLuc counter 19µM*, Rab9 promoter act -1%, BRCA1 expr up -24%, NPC1 promoter act -4%, RORg inh inconclusive, Giardia kill -19, Gal4-VP16 FLuc 4%, p53 reactivator -2%, Menin MLL FP TR inconclusive and ELG1 genotoxic -1%.
For Cc1nc2ccccc2c(=O)n1NC(=O)c1ccc([N+](=O)[O-])cc1 the results were FLuc counter -12%, Rab9 promoter act -1%, BRCA1 expr up -2%, NPC1 promoter act 0%, RORg inh 0%, Giardia kill 22, Gal4-VP16 FLuc 8%, p53 reactivator -2%, Menin MLL FP TR 6% and ELG1 genotoxic 1%.
`COc1cc2c(cc1OC)C(c1ccccc1Br)NC(=O)C2` (stereo not drawn) gave FLuc counter 4%, Rab9 promoter act 0%, BRCA1 expr up 1%, NPC1 promoter act -3%, RORg inh 8%, Giardia kill -24, Gal4-VP16 FLuc -4%, p53 reactivator -3%, Menin MLL FP TR -7% and ELG1 genotoxic 13%.
For CCOC(=O)N1CCN(c2cc(N3CCN(CC)CC3)c(F)cc2[N+](=O)[O-])CC1C (stereo not drawn) the results were FLuc counter 6%, Rab9 promoter act 1%, BRCA1 expr up -24%, NPC1 promoter act 3%, RORg inh inconclusive, Giardia kill -7, Gal4-VP16 FLuc -7%, p53 reactivator -7%, Menin MLL FP TR -21% and ELG1 genotoxic 2%.
For O=c1c2cccc3c(N4CCOCC4)ccc(c32)c2nc3ccccc3n12 the results were FLuc counter 5.4µM*, Rab9 promoter act 1%, NPC1 promoter act -1%, RORg inh 6%, Gal4-VP16 FLuc 7%, p53 reactivator 23%, Menin MLL FP TR inconclusive and ELG1 genotoxic inconclusive.
`COCCNC(=O)CSc1nnc(-c2ccc(C)cc2)c(-c2ccc(C)cc2)n1` gave FLuc counter -1%, Rab9 promoter act 0%, BRCA1 expr up -23%, NPC1 promoter act -4%, RORg inh 2%, Giardia kill 5, Gal4-VP16 FLuc 1%[10 µM], p53 reactivator -10%, Menin MLL FP TR inconclusive and ELG1 genotoxic -4%.
`O=c1c2sccc2nc(SCc2cc(=O)n3ccccc3n2)n1-c1ccc(Br)cc1` gave FLuc counter -2%, Rab9 promoter act 1%, BRCA1 expr up -49%, NPC1 promoter act 0%, RORg inh 30%, Giardia kill 0, Gal4-VP16 FLuc -4%, p53 reactivator 1%, Menin MLL FP TR 11% and ELG1 genotoxic -4%.
`N#Cc1c(N)nc2c(c1-c1ccccc1)CCCC2` gave FLuc counter 5%, Rab9 promoter act -5%, BRCA1 expr up 0%, NPC1 promoter act -5%, RORg inh -1%, Giardia kill -9, Gal4-VP16 FLuc 3%, p53 reactivator -1%, Menin MLL FP TR -8% and ELG1 genotoxic 1%.
Cc1cccn2c(=O)c(/C=C(\C#N)C(=O)NC3CCS(=O)(=O)C3)c(N3CC(C)OC(C)C3)nc12 (stereo not drawn) was read as FLuc counter 1%, Rab9 promoter act -2%, BRCA1 expr up 0%, NPC1 promoter act 2%, RORg inh 9%, Giardia kill 17, Gal4-VP16 FLuc 29%, p53 reactivator 0% and ELG1 genotoxic -3%.
COc1cc(/C=N/n2nnnc2N)ccc1OCC#N was read as FLuc counter -1%, Rab9 promoter act -2%, BRCA1 expr up -12%, NPC1 promoter act -8%, RORg inh -4%, Giardia kill 4, Gal4-VP16 FLuc -4%, p53 reactivator -8%, Menin MLL FP TR -15% and ELG1 genotoxic 7%.
`COc1ccc(N2CCC(CNC(=O)Nc3ccc(Cl)cc3)C2)cc1` (stereo not drawn) gave FLuc counter -1%, Rab9 promoter act 7%, BRCA1 expr up 2%, NPC1 promoter act 6%, RORg inh inconclusive, Giardia kill -5, Gal4-VP16 FLuc -3%, p53 reactivator -4%, Menin MLL FP TR inconclusive and ELG1 genotoxic -7%.
Screening Cc1ccc(NC(=O)c2cncc(Br)c2)c(O)c1 returned FLuc counter 17µM*, Rab9 promoter act inconclusive, BRCA1 expr up 55%, NPC1 promoter act inconclusive, RORg inh -12%, Giardia kill -9, Gal4-VP16 FLuc 6%[10 µM], p53 reactivator 23%, Menin MLL FP TR 16% and ELG1 genotoxic -1%.
For Cc1cc(C)nc(N2CCC(C(=O)NCCc3ccccc3)CC2)n1 the results were FLuc counter 3%, Rab9 promoter act -4%, BRCA1 expr up 6%, NPC1 promoter act 1%, RORg inh -17%, Giardia kill 6, Gal4-VP16 FLuc 2%, p53 reactivator 2%, Menin MLL FP TR -5% and ELG1 genotoxic inconclusive.
`O=C(c1ccco1)N1CCN(c2ccc(Cl)cc2)CC1` gave FLuc counter 17µM*, Rab9 promoter act inconclusive, BRCA1 expr up 11µM*, NPC1 promoter act inconclusive, RORg inh inconclusive, Giardia kill -21, Gal4-VP16 FLuc inconclusive, p53 reactivator inconclusive, Menin MLL FP TR -22% and ELG1 genotoxic inconclusive.
`COc1cc2cc(C(c3nnnn3C(C)(C)C)N3CCc4ccccc4C3)c(=O)[nH]c2cc1OC` (stereo not drawn) gave FLuc counter -3%, Rab9 promoter act 0%, BRCA1 expr up -51%, NPC1 promoter act 0%, RORg inh 1%, Giardia kill -18, Gal4-VP16 FLuc -3%, p53 reactivator -11%, Menin MLL FP TR -13% and ELG1 genotoxic -2%.
Screening NC(=NCCc1ccccc1)NS(=O)(=O)c1ccc2ccccc2c1 returned FLuc counter 3%, Rab9 promoter act -1%, BRCA1 expr up -69%, NPC1 promoter act -1%, RORg inh 8%, Giardia kill -4, Gal4-VP16 FLuc -11%, p53 reactivator -3%, Menin MLL FP TR 2% and ELG1 genotoxic -1%.
For Cc1noc2ncnc(Oc3cc(Cl)ccc3Cl)c12 the results were FLuc counter -4%, Rab9 promoter act -4%, BRCA1 expr up -79%, NPC1 promoter act -16%, RORg inh -35%, Giardia kill -4, Gal4-VP16 FLuc 6%, p53 reactivator inconclusive, Menin MLL FP TR inconclusive and ELG1 genotoxic inconclusive.

Screening results from PubChem BioAssay.
